Screening data deposited in PubChem BioAssay by National Center for Advancing Translational Sciences (NCATS).
HPGD inh – inhibitors of human 15-hydroxyprostaglandin dehydrogenase (HPGD); purified HPGD, NADH fluorescence kinetic, PGE2 substrate; Potency, µM, without a hit: top-dose activity change, negative = inhibition, most hits filed as inhibitors; P15428; actives 4.3% (n = 150,000); active = well fitted inhibition curve with a large enough effect (not every such curve was filed as active); inconclusive = small, poorly fitted or top-dose-only effect, or another doubt; inactive = no such curve, though single readings can be large or run the other way;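 also: top concentration of the series not given in the record; plate controls included wells without enzyme; inactives centre near -10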
Target sequence (P15428 whole entry, looked up): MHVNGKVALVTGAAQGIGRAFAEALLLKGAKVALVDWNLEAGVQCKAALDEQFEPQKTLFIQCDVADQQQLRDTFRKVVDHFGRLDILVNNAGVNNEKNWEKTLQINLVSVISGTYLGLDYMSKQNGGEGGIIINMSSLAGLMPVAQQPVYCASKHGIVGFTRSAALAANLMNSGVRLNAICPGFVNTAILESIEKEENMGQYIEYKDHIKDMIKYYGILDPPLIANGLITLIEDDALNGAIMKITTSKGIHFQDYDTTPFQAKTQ
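NADH formation kinetics: reaction with 30 uM PGE2 and 1 mM NAD+ (final), 20 nM enzyme, Tris-HCl pH 8 with Tween 20, after 15 min compound preincubation at room temperature. Fluorescence change, last versus first of five reads.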
* marks the source's active call; other numbers are inactive results; ? = inconclusive. % is scaled to controls: 0 for no effect and ±100 for the full control effect; potency is read from the fitted curve at half-maximal effect. An excerpt; rates above refer to the full screens.

Sample of the layout:
compound	HPGD inh
COc1ccc(OC)c(NC(=O)c2ccccc2SC)c1	-17.3%
Cc1ccc(OCCSc2nnc(-c3ccncc3)n2C)cc1	-3.3%

All compounds of this part, from the start:
compound	HPGD inh
COc1ccc(OC)c(NC(=O)c2ccccc2SC)c1	-17.3%
Cc1ccc(OCCSc2nnc(-c3ccncc3)n2C)cc1	-3.3%
Nc1c(-c2ccccc2)nc(Cl)nc1-c1ccccc1	?
Fc1cccc(-c2oncc2-c2nnnn2-c2ccc(Cl)cc2)c1	1.0%
Cc1ccc(CNC(=O)N[C@@H](Cc2ccccc2)C(=O)O)cc1	-14.1%
O=C(N/N=C/C1C(c2ccccc2)C1(Cl)Cl)c1cccc(Cl)c1 (stereo not given)	-20.5%
O=C(Nc1nnc(CSCc2ccc(F)cc2)s1)c1ccc([N+](=O)[O-])cc1	?
COC(=O)c1cn(C)c2ccc(S(=O)(=O)N3CCCC3)cc2c1=O	8.91µM*
COc1cccc(Nc2nc3ccccc3n3nnnc23)c1	?
C/C(=N\Nc1cc(Cl)nc(C)n1)c1ccccc1	-4.7%
CC1=NN(c2ccc(C)cc2)C(=O)/C1=C\c1ccc(Br)s1	-19.4%
Cc1ccc(NC(=S)c2nc3ccccc3s2)cc1	-8.6%
Cc1ccc(CCP(=O)(O)CN2CCOCC2)cn1	-3.5%
CC1(C)OC(=O)N(CCc2ccccc2)C1(C)O (stereo not given)	-12.0%
CCCCCCSC1=C(C#N)C(=O)NC2(CCCCC2)S1	-10.2%
COc1ccc(C(=O)N(c2ccccc2)C2C=CS(=O)(=O)C2)cc1 (stereo not given)	3.8%
Cn1c(=O)c(C(=O)NCCO)c(O)c2ccccc21	-3.4%
C=C(C)c1cccc(C(C)(C)NC(=O)Nc2cc(C)ccc2OC)c1	-10.8%
CCOc1ccc(N=C2NC(=O)S/C2=C\c2ccc(Cl)cc2)cc1	-15.8%
COc1ccc(CCNC(=O)Cn2cccc2C(=O)c2ccccc2C)cc1OC	-6.3%
COC(=O)C1(C(F)(F)F)N=C2Sc3ccccc3N2C(N2CCOCC2)=N1 (stereo not given)	-5.1%
N=c1c2c3c(sc2ncn1CCN1CCOCC1)CCCC3	-3.3%
CCOc1ccc2nc(SCC(=O)Nc3ncccn3)[nH]c2c1	-9.6%
O=C(Nc1ccc(Oc2ccccc2)cc1)c1cnc2n(c1=O)CCS2	?
O=C(NNc1cccc(Cl)n1)Nc1ccc(Cl)cc1	-15.4%
O=C(c1cccc(S(=O)(=O)N2CCCC2)c1)c1cccc(S(=O)(=O)N2CCCC2)c1	0.7%
Cn1c(=O)c2c(nc(CN3CCN(Cc4ccccc4)CC3)n2Cc2ccccc2)n(C)c1=O	-4.3%
O=C(NCCN1CCOCC1)C1CCC(=O)N1C1CCCCC1 (stereo not given)	-4.3%
CCC(C)c1ccc(O)c(NC(=O)c2cncc(Br)c2)c1 (stereo not given)	-22.9%
COc1ccccc1N1CCN(C(CNC(=O)C2CCCCC2)c2cccnc2)CC1 (stereo not given)	5.3%
COC(=O)c1ccc(CN(C)S(=O)(=O)c2ccc(C)cc2)o1	-7.4%
CC(C)NC(=O)N1CC2(CCN(C(=O)c3ccco3)CC2)C1	-4.9%
CCc1nnc(NC(=O)c2cccc(S(=O)(=O)N(C)c3ccccc3)c2)s1	28.2µM*
N#Cc1c(NC(=O)CSc2n[nH]c(N)n2)oc(-c2ccccc2)c1-c1ccccc1	-1.9%
COc1ccc(N2CCN(CC(O)c3c[nH]c4ccc(OC)cc34)CC2C)cc1 (stereo not given)	-7.5%
CCC(=O)N(C)C(c1ccccc1Cl)c1nnnn1-c1c(C)cccc1C (stereo not given)	-11.0%
COc1ccc(CC(=O)NNC(=O)CSc2nnc(C)n2-c2ccccc2)cc1	0.9%
Cc1ccc2c(Cl)c(C(=O)NCc3cccnc3)sc2c1	?
Cc1ccccc1C(=O)Nc1ccccc1-n1cccc1	-4.0%
Cc1ccc(-c2noc(CCC(=O)Nc3ccccc3N3CCN(C)CC3)n2)cc1	-3.5%
COc1ccc(OC)c(/C=N\NC(=O)c2ccc(=O)n(C)c2)c1	-22.1%
Cc1ccc(-c2cc(-c3ccccc3)c(C#N)c(N)n2)o1	?
Cc1c(C(=O)NC(=S)Nc2ccc(NC(=O)c3cccs3)cc2)oc2ccccc12	2.82µM*
CCOC(=O)c1cc(OC(=O)c2ccccc2OC)n(-c2ccccc2)n1	-13.7%
O=C(Cn1cnc2c(nnn2Cc2ccc(Cl)cc2)c1=O)N1CCCc2ccccc21	-15.2%
Cc1noc(C)c1C(=O)N1CCC[C@@]2(CCN(c3ccccn3)C2)C1	-15.8%
O=C(Oc1ccc2ccc(=O)oc2c1)N1CCOCC1	-25.2%
COc1ccc(S(=O)(=O)N2CCCCC2)cc1	-4.3%
Cc1cc(C)nc(SCC(=O)c2ccc(O)cc2O)n1	-19.2%
Cc1cccc(C(=O)NNC(=O)c2ccc(F)cc2)c1	-6.7%

(listing goes on)
compound	HPGD inh
COc1ccc(C(=O)Nc2sc(C)c(-c3ccccc3)c2C#N)cc1OC	?
COc1ccc(NS(=O)(=O)c2cccc(NC(=O)NC3CCCCC3)c2)cc1	-17.6%
CCN(CC)c1ccc(N=Nc2nn(C)c(C)c2[N+](=O)[O-])cc1	-7.0%
CN(C)CCSc1nnc2sc3ccccc3n12	3.2%
CCCCn1c(SCC(=O)c2ccc(OC)c(OC)c2)nc2cc(S(N)(=O)=O)ccc21	-12.2%
NC(=O)c1oc2ccccc2c1NC(=O)c1ccc(F)cc1	-6.1%
COc1cccc(-c2noc(C3CCCN(S(=O)(=O)c4cccc(Cl)c4C)C3)n2)c1 (stereo not given)	-7.0%
CCc1ccc(C(=O)CSC2=C(C#N)C(c3ccco3)C(C(C)=O)=C(C)N2)cc1 (stereo not given)	?
O=C(NCc1n[nH]c(=S)n1-c1cccc(Cl)c1)c1ccc(S(=O)(=O)N2CCCC2)cc1	-23.0%
CCn1c(O)c(C=NCc2cccs2)c(=O)n(CC)c1=S	-24.4%
O=c1[nH]cc(COCc2ccccc2)c(=O)[nH]1	-4.2%
O=C(Nc1nc(-c2ccc(S(=O)(=O)N3CCCC3)cc2)cs1)c1ccco1	-24.8%
O=C(COC(=O)c1cccc(S(=O)(=O)N2CCc3ccccc32)c1)Nc1ncc(C(F)(F)F)cc1Cl	-14.5%
Cc1ccc(-c2cnc(SCC(=O)N3CCCc4ccccc43)n2C)cc1	-4.8%
CC(C)(C)S(=O)(=O)c1nc2ccccc2s1	-15.6%
N#CCSC1=Nc2ccccc2C2=NC(CCC(=O)N3CCN(c4ccccc4)CC3)C(=O)N12 (stereo not given)	-15.3%
CCOC(=O)CN1C(=O)N[C@@H](c2ccco2)C(C(=O)OC)=C1C	-13.4%
COCC(=O)N(c1ccc(C(C)C)cc1)C1C=CS(=O)(=O)C1 (stereo not given)	-1.4%
CCOC(=O)C1C(=O)CC(C)(O)C(C(=O)OCC)C1c1cc(Br)ccc1OC (stereo not given)	1.2%
Cc1nn(-c2ccccc2)c(N2CCCC2)c1/C=C1\N=C(c2ccc(F)cc2)OC1=O	?
O=C1c2ccccc2N(Cc2ccc(Cl)cc2)C2=NCCN12	-9.7%
CCN(CC)C(=O)c1cccc2c1C(=O)c1ccccc1-2	-5.4%
Cc1ccc(-c2nc3ccccc3c(=O)n2NC(=O)c2cccs2)cc1	-13.0%
Cc1cc(C)nc(N/N=C/c2ccccc2OCc2ccc(Cl)cc2)n1	-6.3%
CC1CCN(S(=O)(=O)c2ccc(NC(=O)N3c4ccccc4Sc4ccccc43)cc2)CC1	-12.4%

Copied from the results shown (five entries):
compound	HPGD inh
COc1ccc(C(=O)Nc2sc(C)c(-c3ccccc3)c2C#N)cc1OC	?
COc1ccc(NS(=O)(=O)c2cccc(NC(=O)NC3CCCCC3)c2)cc1	-17.6%
CCN(CC)c1ccc(N=Nc2nn(C)c(C)c2[N+](=O)[O-])cc1	-7.0%
CN(C)CCSc1nnc2sc3ccccc3n12	3.2%
CCCCn1c(SCC(=O)c2ccc(OC)c(OC)c2)nc2cc(S(N)(=O)=O)ccc21	-12.2%

Other results
compound	HPGD inh
Cc1cc(C(C)(C)C)c(OCCCN2CCOCC2)c(C(C)(C)C)c1	-8.5%
C=CCNC(=O)c1ccncc1	-1.9%
Cc1nnc(SCc2cnc(-c3ccccc3)o2)[nH]c1=O	-10.5%
CCCCNC(=O)c1ccc(N2CCOCC2)c(NS(=O)(=O)c2ccc(OC)cc2)c1	-11.7%
COc1ccccc1N1C(=O)CC1(C#N)c1ccc(OCc2ccccc2)cc1 (stereo not given)	-11.1%
COc1ccccc1-n1c(SCC(=O)Nc2ccc(F)cc2)nc2c(c1=O)SCC2	-16.2%
CCOc1ccccc1-c1nc(-c2cc3ccc(C)cc3[nH]c2=O)no1	-22.9%
O=C(c1ccc(Cl)cc1)c1cnc(Nc2ccccc2)s1	-15.5%
Fc1ccc(CSc2ccc3nnc(-c4cccs4)n3n2)cc1	-16.7%
O=C(NC(=S)Nc1cccc(Cl)c1N1CCCCC1)c1cccs1	-4.5%
Cc1ccc(Cl)c(NC(=O)COC(=O)c2ccccc2C(=O)c2ccc(Cl)c([N+](=O)[O-])c2)c1Cl	-5.7%
COc1ccccc1CNC(=O)Cn1cccc1	15.8µM*
Cc1nc(=O)c(-c2ccccc2)c(C)n1-c1ccccc1C(=O)O	-6.2%
COc1ccc(S(=O)(=O)N[C@@H](Cc2ccccc2)C(=O)N2CC[C@@]3(O)CCCC[C@H]3C2)cc1	-0.2%
COc1ccccc1-c1nnc(-c2ccc(N3CCOCC3)cc2)o1	?
NCC(=O)N[C@@H](CCCN=C(N)N)C(=O)NCC(=O)N[C@@H](CC(=O)O)C(=O)N[C@@H](CC(N)=O)C(=O)N1CC[C@@H](C(=O)O)C1	-0.3%
O=C(Nc1nc(-c2cc(Cl)sc2Cl)cs1)c1ccccc1	-23.1%
Cc1ccc(Sc2ccc(NC(=O)CCl)cc2)c(C)c1	11.2µM*
CC1(C)C2([N+](=O)[O-])CN(CCO)CC1([N+](=O)[O-])CN(CCO)C2	-6.9%
CC(=O)N(C)C1(c2nnnn2CCOC(=O)Nc2cccc3ccccc23)CCCC1	-2.1%
Cc1cccc(NC(=S)NNC(=O)c2ccco2)c1	-8.7%
NC(=S)Nn1c(CCC(=O)O)ccc1-c1ccccc1	-8.7%
CC1(C)NC(=O)N(CC(O)COc2ccccc2C(=O)Nc2ccccc2)C1=O (stereo not given)	6.1%
COc1ccc(C(=O)NCCc2nnc(SCc3nc4ccccc4c(=O)[nH]3)n2C)cc1	-9.9%
Cc1cc(C(=O)CSc2nnc(N)s2)c(C)n1CCc1ccc(Cl)cc1	-18.4%
O=C1c2ccccc2C(=O)N1CCCCN(C(=O)c1cccc([N+](=O)[O-])c1)c1ccc(Cl)cc1	-20.5%
COc1ccc(NC(=O)CN2CCC(C)CC2)cc1	0.4%
COC(=O)c1sccc1NC(=O)/C=C/c1ccc(Cl)cc1	?
Cc1cc(NC(=O)COC(=O)c2ccc(NS(=O)(=O)c3ccc(C)c(C)c3)cc2)no1	-3.2%
COc1ccc(S(=O)(=O)n2nc(OC(=O)c3ccc(C)cc3)cc2N)cc1	-11.4%
CCOC(=O)CSc1nc2cc(C(=O)N3CCC(C(N)=O)CC3)ccc2c(=O)n1-c1ccccc1	-27.1%
Cc1ccc(CCC(=O)Nc2nccs2)o1	28.2µM*
Cc1nc2ccc(Br)cn2c1NC(C)(C)C	0.3%
N#Cc1ccsc1NC(=O)CN1CCCCCC1	-1.2%
Cc1ccccc1C(=O)NC(=S)Nc1ccc(Oc2ccc(Cl)cc2)cc1	-2.9%
O=C(O)CCn1c(=O)sc2ccccc21	-12.2%
COc1ccccc1N1C(=O)CC(N2CCc3ccccc32)C1=O (stereo not given)	-13.4%
Cc1cc(C)c(S(=O)(=O)Nc2ccc(O)cc2)cc1C	-3.9%
CCOC(=O)[C@H]1CCC[C@@H](NS(=O)(=O)c2ccc(NC(C)=O)cc2)C1	-0.3%
Cc1cccc(CS(=O)(=O)Cc2ccc(C(=O)NCCN3CCCCC3C)o2)c1 (stereo not given)	5.3%
Nc1ccccc1SCC(=O)N1CCc2ccccc21	?
O=C(CSc1nc2ccccc2c(=O)n1NC(=O)Cc1ccccc1)NCc1ccccc1	-2.3%
O=C(NCc1ccco1)c1ccc(S(=O)(=O)N2CCOCC2)cc1	15.8µM*
CC(=O)/C(=N/Nc1cccc(C)c1)N1CCOCC1	-20.6%
CC(=O)Nc1cccc(NC(=O)C2CC(=O)N(c3ccc(C)cc3)C2)c1 (stereo not given)	-10.8%
O=C(Nc1ccc2cn[nH]c2c1)c1c(Cl)cccc1Cl	22.4µM*
COc1cc(OC)cc(C(=O)N2CCN(Cc3cccc(F)c3)CC2)c1	0.0%
CN(C)S(=O)(=O)c1ccc(/C(O)=C2/C(=O)C(=O)N(CCN3CCCCC3)C2c2cccnc2)cc1 (stereo not given)	-9.4%
Cc1c(C(=O)O)cccc1N1C(=O)Nc2ccccc2N1O	-2.3%
COc1cccc2cc(C(=O)NCc3ccco3)c(=O)oc12	-25.5%
